Screening results as filed in PubChem BioAssay.
Cruzain noTriton: inhibitors of Trypanosoma cruzi cruzain without detergent | P25779 | purified cruzain, Z-FR-AMC fluorescence, no detergent | Potency, µM, without a hit: max response, negative = inhibition, actives largely listed as inhibitors | 200,000 tested, 2.3% active | AID 1476; active = well fitted curve in the direction sought with a large enough effect; inconclusive = small, poorly fitted or top-dose-only effect, or another doubt; inactive = no such curve, though single readings can be large; an effect the other way counts as inactive or inconclusive;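 note: plate controls were enzyme without inhibitor for no effect and buffer without enzyme for full effect; nearly all actives have a fitted effect of over 40% in size; top concentration of the series not given in the record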
Target sequence (P25779 123-467 limits assumed): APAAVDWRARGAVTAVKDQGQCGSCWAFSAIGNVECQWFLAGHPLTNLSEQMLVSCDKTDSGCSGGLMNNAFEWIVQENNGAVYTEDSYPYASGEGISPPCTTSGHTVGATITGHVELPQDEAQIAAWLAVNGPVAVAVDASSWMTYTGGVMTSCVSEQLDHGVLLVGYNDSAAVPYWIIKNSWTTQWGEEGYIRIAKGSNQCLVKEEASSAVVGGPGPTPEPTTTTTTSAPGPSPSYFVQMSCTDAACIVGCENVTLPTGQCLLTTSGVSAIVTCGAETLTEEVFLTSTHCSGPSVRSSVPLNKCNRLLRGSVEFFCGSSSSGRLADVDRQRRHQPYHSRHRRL
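Detergent-free condition (0.00005% Triton X-100) in acetate buffer pH 5.5 with DTT. 1.5 nM enzyme and compound were pre-mixed 15 min, then 2 uM Z-FR-AMC substrate added; reaction progress from fluorescence change between first and third reads (60 s).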
NS1 inh: blocks influenza NS1 protein function; AID 2326; S. cerevisiae slowed by influenza A NS1, growth recovery by OD600; Potency, µM (titrated, usually from 46.1 µM), for the others: at the top dose activity, positive = more growth; 270,000 tested, 0.4% active; note: actives are rising curves; nearly all actives have a fitted effect of over 50% in size
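Recovery from NS1-induced slow growth read by OD600 in budding yeast switched to galactose assay medium (pH 6.0, -URA) at 1:100 dilution. Compound 23 nl per well; the matching strain lacking NS1 serves as control.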
SARS PLP yeast: inhibitors of SARS-CoV papain-like protease in yeast; S. cerevisiae expressing SARS-CoV PLpro, growth rescue; control for the full effect not named in the record; Potency, µM (top dose mostly 32.9 µM), without a hit: top-dose activity, positive = growth rescue; 330,000 tested, 0.19% active; AID 485353; note: 0% is about no effect; nearly all actives have a fitted effect of over 55% in size; growth read by luminescence after 48 h
Marburg entry inh: Marburg virus entry inhibition; 300,000 tested, 1.8% active; AID 540276; Potency, µM (doses to about 37.8 µM), without a hit: at the top dose activity change, negative = inhibition, hits mostly inhibitors; Marburg virus pseudotyped entry inhibition, cell reporter; control for the full effect not named in the record; about a third of the inactives were read at about 46 µM; active = well fitted inhibition curve with a large enough effect; inconclusive = small, poorly fitted or top-dose-only effect, or effect the other way; inactive = flat fitted curve, though single readings scatter; tested in HEK293 cells; about a fifth of its hits are not listed in these tables; note: % is set by controls: 0 for no effect and ±100 for the full control effect; luciferase read-out
RE007 growth inh: less growth of the S. pombe RE007 Vpr strain. AID 651644. S. pombe RE007 Vpr strain, BacTiter-Glo ATP luminescence, 24 h; control for the full effect not named in the record. 360,000 tested, 0.21% active. Potency, µM (series often up to 92.2 µM), for the others: at the highest dose activity change, negative = less growth; active = well fitted falling curve with a large enough effect; inconclusive = small, poorly fitted or top-dose-only effect; inactive = no such curve, though single readings can be large or run the other way;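 note: % is set by controls: 0 for no effect and ±100 for the full control effect; nearly all actives have a fitted effect of over 50% in size; the assay follows cell death caused by Vpr and the record does not say whether a fall means rescue or toxicity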
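Fission yeast RE007 carrying one integrated HIV-1 vpr copy, seeded at OD 0.01 in PMG+AL medium with 23 nL pinned compound. Grown 24 h at 30 degrees; viability read by BacTiter-Glo luminescence after 5 min.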
Cruzain Triton: cruzain (T. cruzi) inhibition with detergent; P25779; purified cruzain, Z-FR-AMC fluorescence, 0.01% Triton; Potency, µM, without a hit: max response, negative = inhibition, most hits filed as inhibitors; 200,000 tested, 0.43% active; AID 1478; active = well fitted curve in the direction sought with a large enough effect; inconclusive = small, poorly fitted or top-dose-only effect, or another doubt; inactive = no such curve, though single readings can be large; an effect the other way counts as inactive or inconclusive;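 note: plate controls were neutral wells for no effect and buffer without enzyme for full effect; nearly all actives have a fitted effect of over 40% in size; top concentration of the series not given in the record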
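Detergent-containing run (0.01% Triton X-100) in acetate buffer pH 5.5 with 5 mM DTT: enzyme at 1.5 nM final, 15 min compound preincubation at room temperature, then 2 uM Z-FR-AMC substrate. Activity taken as 60 s fluorescence increase at 360/450 nm.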
Lassa entry inh: inhibitors of Lassa virus binding or cell entry; Lassa virus pseudotype entry inhibition, cell reporter; control for the full effect not named in the record; 300,000 tested, 1.2% active; Potency, µM (doses to about 37.9 µM), inactives show at the highest dose activity change, negative = inhibition, most hits filed as inhibitors; active means well fitted inhibition curve with a large enough effect; inconclusive means small, poorly fitted or top-dose-only effect, or effect the other way; inactive means flat fitted curve, though single readings scatter; tested in HEK293 cells; note: % is set by controls: 0 for no effect and ±100 for the full control effect; nearly all actives have a fitted effect of over 50% in size; luciferase read-out
2A StopGo: lowers the luciferase signal of an FMDV 2A StopGo reporter; human cells with a luciferase reporter of 2A StopGo recoding; control for the full effect not named in the record; Potency, µM (top dose mostly 57.9 µM), inactives show top-dose signal change, negative = less light; 410,000 tested, 1.2% active; AID 1159524; active = well fitted falling curve with a large enough effect; inconclusive = small, poorly fitted or top-dose-only effect; inactive = no such curve, though single readings can be large or run the other way; tested in HEK293T cells; note: % is set by controls: 0 for no effect and ±100 for the full control effect; nearly all actives have a fitted effect of over 45% in size; luciferase light after 4 h
The depositor's hits bear a star; ? = inconclusive; nt = no result given; & = joins results of further samples; [ ] = another dose, or the depositor's remark. Unless noted, calls come from the whole dose curve; as a rule, active means well fitted rising curve with a large enough effect; inconclusive means small, poorly fitted or top-dose-only effect; inactive means no such curve, though single readings can be large or run the other way. Potency is the fitted concentration of half-maximal effect. Not a hit list, and some 4.7% of all compounds hit somewhere here.

SMILES	Cruzain noTriton	NS1 inh	SARS PLP yeast	Marburg entry inh	RE007 growth inh	Cruzain Triton	Lassa entry inh	2A StopGo
CSc1cccc(NC(=S)N(CCC(C)C)C2CCN(C(C)C)CC2)c1	nt	nt	13%	?	5%	nt	?	9%
Cc1cc(N2CCN(C)CC2)nc2ccc(NC(=S)N3CCC4(CC3)OCCO4)cc12	nt	-2%	3%	7%[46.1 µM]	13%	nt	?	-11%
CC(=O)Nc1cccc(-c2csc(NCc3ccccc3)n2)c1	nt	2%	-1%	nt	-15%	nt	nt	2%
CCC(=NCCc1ccccc1)c1c(O)n(C2CCCCC2)c(=O)[nH]c1=O	3%	-9%	-1%	?	-2%	1.7%	?	-28%
Cc1ccc(-c2cc(-c3nnc(SCC(=O)NCC(C)C)n3N)c3ccccc3n2)cc1	?	12%	5%	0%	20%	3.7%	0%	-1%
O=C(CCC(=O)OCC(=O)c1ccc(-c2ccccc2)cc1)Nc1cccc(Cl)c1	25µM*	2%	4%	2%	-2%	2.4%	?	0%
O=c1c(Cc2ccc(Cl)cc2Cl)c(O)ccn1Cc1ccc(Cl)cc1	-5%	?	-25%	-26%	2%	-8.2%	-3%	-14%
CC(=O)N1CCC(=NNS(=O)(=O)c2cccc([N+](=O)[O-])c2)CC1	14%	-4%	8%	11%	1%	2.0%	-3%	-11%
Cc1cccc(Cn2c(-c3cccs3)nc3ccccc32)c1	-4%	nt	nt	-9%[46.1 µM]	nt	-8.0%	-17%[46.1 µM]	-4%
COc1ccc(/C=C/C(=O)NC(=S)Nc2ccc(S(=O)(=O)Nc3ccc(OC)nn3)cc2)cc1	?	1%	?	?	-11%	-5.7%	3%	39%[activator]
Clc1ccc2ccc3cccnc3c2n1	nt	-44%	-6%	nt	?	nt	nt	13%
Nc1nc(Nc2ccccc2F)sc1C(=O)c1ccc(Cl)cc1	-29%	nt	nt	?	nt	-15%	-11%[46.1 µM]	35%[activator]
O=C(Nc1ccccc1)C1=C[C@@H](c2ccc(C(F)(F)F)cc2)C[C@@H](OCc2ccc(CO)cc2)O1	nt	2%	-1%	nt	6%	nt	nt	0%
COc1ccc([N+](=O)[O-])cc1NS(=O)(=O)c1cccc(C(=O)OC2CCOC2=O)c1 (stereo not given)	nt	nt	-8%	-10%	-1%	nt	0%	-16%
CCn1cc(Br)c(C(=O)Nc2ccc(Cl)c(Cl)c2)n1	-14%	-2%	-7%	17%	?	-11%	?	29%
O=C(Nc1ccccc1OCc1cc(=O)n2ccccc2n1)c1ccccc1F	10%	nt	nt	nt	nt	2.1%	-5%[46.1 µM]	-4%
CC(=O)Nc1cccc(N2CCCC2=O)c1	-3%	-6%	2%	-2%	-4%	0.9%	-2%	20%
CC(C)(C)c1cc(NC(=O)c2cccnc2)no1	3%	-12%	1%	3%	13%	1.7%	?	74%[activator]
O=C(CCS(=O)(=O)c1ccccc1)Nc1ccc(N2CCN(Cc3ccccc3)CC2)cc1	nt	nt	17%	?	-10%	nt	-2%	8%
Cc1ccc2c(c1)N(C(=O)CCC(=O)NCCCN1CCOCC1)CCO2	nt	-11%	-4%	nt	-6%	nt	nt	-18%
COc1ccccc1-n1c(=O)n(C)c2c(C(N)=O)nc(-c3cccc(OC)c3OC)nc21	-3%	nt	nt	nt	nt	-2.8%	-9%[46.1 µM]	?
CCOc1ccc(S(=O)(=O)N2CCN(c3ccccc3)CC2)c2cccnc12	89%	1%	1%	?	0%	0.9%	-27%	-10%
CCCCCCNC(=O)N1C/C=C\C(c2ccc(OC)cc2)N(Cc2ccc(F)cc2)C(=O)C1 (stereo not given)	nt	1%	-8%	nt	-15%	nt	nt	-25%
O=C(CSCc1c(Cl)cccc1Cl)Nc1ccc2c(c1)OCO2	-42%	-10%	-4%	23%[46.1 µM]	11%	-5.0%	2%	37%[activator]
COc1cc(/C=C2\SC(=N)N(c3ccc4c(c3)OCO4)C2=O)cc(OC)c1O	-1%	19%	-30%	-19%	-9%	-6.5%	-4%	0%

Next part:
SMILES	Cruzain noTriton	NS1 inh	SARS PLP yeast	Marburg entry inh	RE007 growth inh	Cruzain Triton	Lassa entry inh	2A StopGo
CCCN(CCC)C(=O)CN1C(=O)CSc2ccc(S(=O)(=O)N3CCC(C)CC3)cc21	13%	nt	nt	-15%[46.1 µM]	nt	-4.4%	nt	-2%
CC1(C)CC2(CCO1)OC(=O)CC2C(=O)Nc1ccc(Cl)cc1[N+](=O)[O-] (stereo not given)	nt	2%	0%	25%	-3%	nt	18%	-13%
Cc1ccc(C(C)C)c(OCC(=O)N/N=C/c2cccn2C)c1	nt	-11%	-4%	nt	0%	nt	nt	-13%
CCOC(=O)c1ccc(NC(=O)Nc2cc(C)on2)cc1	16µM*	-14%	6%	24%	0%	2.0%	25%	64%[activator]
CCOc1ccc(NC(=O)COC(=O)Cn2cnnn2)cc1OCC	-8%	6%	-7%	-4%	9%	2.8%	7%	-24%
Cc1ccc2cc(CCl)c(Cl)nc2c1	nt	-32%	-2%	?	-6%	nt	2%	?
NC(=S)NN=C1c2ccccc2-c2ccccc21	nt	6%	-6%	nt	-24%	nt	nt	?
CNC(=O)/C(C#N)=C\c1cc(C)n(-c2ccc(N3CCOCC3)cc2)c1C	nt	8%	1%	?	23%	nt	-6%[46.1 µM]	-14%
COC(=O)C(NC(=O)CCc1c(C)nc2c(c(C)nn2-c2ccccc2)c1C)C(C)C (stereo not given)	?	-8%	-2%	25%[46.1 µM]	13%	-6.9%	-7%[46.1 µM]	?
O=C(Nc1ccc(NC(=O)c2ccccc2O)cc1)Nc1ccc(F)cc1F	nt	4%	3%	-3%	-12%	nt	11%	21%
COc1ccc(NC(=O)CN2C(=O)NC3(CCCCC3C)C2=O)cc1OC (stereo not given)	nt	nt	1%	?	23%	nt	1%	-2%
CCOC(=O)c1cccc(NC(=O)C2CCN(S(=O)(=O)c3cnc[nH]3)CC2)c1	2%	-4%	-9%	nt	-7%	4.1%	nt	-10%
CN1C(C(=O)NCc2cccs2)=CC(c2ccc(F)cc2)=NS1(=O)=O	nt	3%	-11%	nt	-19%	nt	nt	16%
CC1(C)NC(=O)N(CC(O)COc2ccccc2C(=O)N2CCCCC2)C1=O (stereo not given)	11%	7%	1%	-25%	-3%	-1.7%	3%	1%
Cc1cc(C)c(C(=O)COC(=O)c2cc([N+](=O)[O-])ccc2N2CCOCC2)cc1C	nt	nt	-7%	-1%	21%	nt	17%	-5%
CC(=O)Oc1ccc(-c2csc(Nc3cccnc3)n2)cc1	1%	2%	-5%	?	8%	2.7%	3%	15%
COc1ccc(-c2[nH]ncc2C=O)cc1	-7%	-5%	-11%	6%	2%	0.1%	20%	27%
O=C(O)c1cccc(N2C(=O)C3C4C=CC(C4=C(c4ccccc4)c4ccccc4)C3C2=O)c1 (stereo not given)	nt	8%	-1%	-14%[46.1 µM]	25%	nt	6%	-11%
CCOC(=O)N1CCC(NC(=O)CC(NS(=O)(=O)c2ccc(C)cc2)c2ccco2)CC1 (stereo not given)	-1%	6%	4%	0%&0%	22%	2.9%	3%	-13%
CCOC(=O)COn1c(=O)c(-c2ccc(OC)cc2)[n+]([O-])c2ccccc21	nt	-3%	-1%	-1%[46.1 µM]	-7%	nt	?	8%
CCCN(CCC)C(=O)Nc1cc(Cl)ccc1OC	nt	-7%	0%	-26%[46.1 µM]	-19%	nt	6%[46.1 µM]	-13%
Cc1cc(Cl)ccc1NC(=O)/C=N/O	nt	?	-1%	nt	2%	nt	nt	4%
O=C1CN(C(=O)COc2ccc(Br)cc2F)c2ccccc2N1	-7%	1%	20%	-16%	-21%	-5.3%	-1%	-7%
Cc1cc(S(=O)(=O)N2CCN(c3ccc(F)cc3)CC2)c(C)s1	-9%	-21%	4%	nt	-1%	-3.7%	nt	?
COc1c(C)cc(C(=O)C2CCCN(C(=O)c3cc(C)nc(C)n3)C2)cc1C (stereo not given)	nt	3%	0%	6%[46.1 µM]	0%	nt	3%	-12%

Other records follow.
SMILES	Cruzain noTriton	NS1 inh	SARS PLP yeast	Marburg entry inh	RE007 growth inh	Cruzain Triton	Lassa entry inh	2A StopGo
CC(=O)NC1=C(C#N)C(c2ccccc2)c2c(ccc3ccccc23)O1 (stereo not given)	?	-1%	-30%	10µM*	6%	-2.2%	?	-7%
O=C1NC(Nc2ccccn2)(C(F)(F)F)C(=O)N1c1ccc(F)cc1 (stereo not given)	2%	15%	-1%	3%	17%	0.6%	19%	4%
COCCNc1nc(C(C)(C)C)nc2c1nnn2Cc1ccccc1Cl	4%	-5%	-3%	-18%	-6%	-11%	?	-22%
CC(=O)Nc1ccc(NC(=O)CNC(=O)COc2ccccc2)cc1	nt	1%	1%	0%[46.1 µM]	0%	nt	-1%	11%
COC(=O)c1ccc(NC(=O)C2CCCN2S(=O)(=O)c2ccc(C)cc2)cc1 (stereo not given)	0%	-17%	-10%	4%	4%	-1.1%	-20%	-22%
O=C(CN1C(=O)NC2(CCc3ccccc32)C1=O)c1ccc(Br)s1 (stereo not given)	nt	nt	-1%	?	8%	nt	13%	7%
O=C(Nc1ccc2[nH]c(=O)[nH]c2c1)c1ccc(Br)o1	nt	-7%	-4%	nt	6%	nt	nt	25%
Cn1c(N)c(C(=O)COC(=O)CCc2c[nH]c3ccccc23)c(=O)n(C)c1=O	1%	8%	3.5µM*	2%	-11%	-2.0%	7%	-11%
COc1ccc(/C(O)=C2\C(=O)C(=O)N(CC3CCCO3)C2c2cc(OC)ccc2OC)cc1 (stereo not given)	-8%	-4%	0%	-2%	-8%	-5.9%	-6%	nt
O=C(NCc1ccccc1)/C(=N\O)c1ccccc1	3%	0%	0%	26%&26%[46.1 µM]	-6%	2.5%	?	38%[activator]
CC(=O)c1cccc(Nc2nc(-c3ccccc3)cs2)c1	nt	6%	-1%	nt	16%	nt	?	12%
Cc1cc(NC(=O)c2cc3n(n2)C(C(F)(F)F)CC(c2ccc(Cl)c(Cl)c2)N3)no1 (stereo not given)	-1%	-32%	-12%	?	11%	-3.0%	-3%	0%
C=CCN(c1ccc(C(=O)NCCc2ccccc2)cc1)S(C)(=O)=O	2%	1%	-1%	21%	14%	6.1%	9%	64%[activator]
CCN(CC)CCN1C(=O)C(=O)/C(=C(/O)c2c(C)[nH]c(C(=O)OC)c2C)C1c1cccs1 (stereo not given)	-10%	-4%	6%	-2%	0%	3.8%	4%	-4%
